NPYLR7 agonist: activates Aedes aegypti NPYLR7 receptor; HEK293T NPYLR7/Galpha15, GCaMP6s calcium fluorescence; activation, % at 10 µM; hit rate 0.15% among 270,000; AID 1259423; in the data active = activation above about 40%;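 also: 0% = vehicle and 100% = reference agonist at the receptor; some compounds past the cut are filed as inactive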
NPYLR7 agonist max-min: recorded beside NPYLR7 agonist, whose call it bears; activation, %; measured here: Max-Min RFU normalised activation; some inactives read as strong as hits;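 span of the calcium signal over five minutes; 0% = vehicle and 100% = native peptide agonist; compound fluorescence can raise it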
Numbers without * were called inactive; & = joins results of further samples. Only part of the results is shown (hit frequency here may not be typical).

SMILES	NPYLR7 agonist	NPYLR7 agonist max-min
Cc1cccc(CCNC(=O)c2oc3c(C)c(C)ccc3c2C)n1	3	-2
O=C(NCC1CCCN(S(=O)(=O)c2ccc(F)c(Cl)c2)C1)c1cccnc1 (stereo not drawn)	1	-2
Cc1ccc(N=c2oc3ccc(Br)cc3cc2-c2nc3ccccc3[nH]2)cc1	3	12
Cc1cc(CN2CCN(C(=O)c3cc(O)cs3)CC2)no1	10	12
CN(C)c1nc(N2CCOCC2)c2cnn(C)c2n1	3	1
Cc1ccc(Cl)cc1-n1c(SCc2nc(C(=O)NCCCN3CCCCC3C)cs2)nnc1-c1ccccc1Cl (stereo not drawn)	17	11
O=C(c1cccc2nccnc12)N1CC[C@@H](c2ccc(F)cc2)[C@H](O)C1	1	-1
COc1ccc(N=C2SC(C(=O)Nc3cccc(Cl)c3)CC(=O)N2C)cc1 (stereo not drawn)	1	-1
O=C(NCCc1ccccc1)c1ccc(OC2CCN(C(=O)c3ccsc3)CC2)cc1	9	0
O=S1(=O)C(c2ccccc2)=CC1c1ccccc1 (stereo not drawn)	-7	-7
CC1(C)CNC(=O)c2nc(CCCc3ccccc3)[nH]c2C1	5	3
CCCCN(C)S(=O)(=O)c1ccc2c(c1)nc(SCc1cccc(C(=O)OC)c1)n2C1CCCC1	18	9
Cn1c(=O)c2c(nc(NCc3ccco3)n2Cc2ccccc2Cl)n(C)c1=O	2	5
COc1ccc(C(=O)Nn2cnc3c(cnn3-c3ccc(C)cc3)c2=O)cc1	5	1
CCOC(=O)C(NS(=O)(=O)c1ccccc1)C(O)c1ccccc1 (stereo not drawn)	26	24
CN(C)c1ccc(NC(=O)c2cccc(F)c2)cc1CN(Cc1ccco1)C(=O)c1ccc(F)cc1	30	34
N#CC(=C(O)COc1ccccc1)c1nc2ccccc2s1	-5	-7
CC1(C)Cc2c(c(-c3ccco3)nc3sc4c(NC5CCCCC5)ncnc4c23)CO1	8	1
Cc1nc(S(=O)(=O)NCC(=O)N(Cc2cccs2)C2CC2)cn1C	-1	-2
O=C(c1cc(-c2ccccc2O)n[nH]1)N1CCOC(c2ccc(Cl)cc2)C1 (stereo not drawn)	2	2

Single values from above.
For NPYLR7 agonist max-min, CC1(C)CNC(=O)c2nc(CCCc3ccccc3)[nH]c2C1 reads 3
For NPYLR7 agonist max-min, O=C(c1cccc2nccnc12)N1CC[C@@H](c2ccc(F)cc2)[C@H](O)C1 reads -1
For NPYLR7 agonist max-min, Cc1nc(S(=O)(=O)NCC(=O)N(Cc2cccs2)C2CC2)cn1C reads -2
For NPYLR7 agonist max-min, CN(C)c1nc(N2CCOCC2)c2cnn(C)c2n1 reads 1
For NPYLR7 agonist max-min, CCOC(=O)C(NS(=O)(=O)c1ccccc1)C(O)c1ccccc1 (stereo not drawn) reads 24
For NPYLR7 agonist max-min, CN(C)c1ccc(NC(=O)c2cccc(F)c2)cc1CN(Cc1ccco1)C(=O)c1ccc(F)cc1 reads 34
For NPYLR7 agonist max-min, O=C(c1cc(-c2ccccc2O)n[nH]1)N1CCOC(c2ccc(Cl)cc2)C1 (stereo not drawn) reads 2

The list continues.
SMILES	NPYLR7 agonist	NPYLR7 agonist max-min
CCCc1cc(N2CCn3nc(C(=O)N4CCOCC4)cc3C2)nc(C)n1	-9	-14
Nc1nnc(SCC(=O)Nc2nnc(-c3ccc(Cl)cc3)s2)s1	-1	1
COCCNC(=O)C1CCCN(C2CCN(Cc3nc(C)c(C)s3)CC2)C1 (stereo not drawn)	-4	-7
O=C(NCC1CCCO1)c1cc2n(n1)C(C(F)(F)F)CC(c1ccco1)N2 (stereo not drawn)	-6	-8
CCOc1cc(CNC2CCN(C(C)=O)CC2)cc(Br)c1OC	-3	-4
CCn1c(CC2CCN(c3ncnc4[nH]ccc34)CC2)n[nH]c1=O	11	4
CCOC(=O)NN=CC1=CCC2CC1C2(C)C (stereo not drawn)	-3	-3
COc1ccc(CCNC(=O)CC(c2ccc(Cl)cc2)c2cn(C)c3ccccc23)cc1OC (stereo not drawn)	0	7
Cc1ccc(-n2nnnc2CNS(=O)(=O)N(C)C)cc1	2	0
COc1ccc(/C=C/C(=O)NCC2Cc3cc(F)cc(-c4nc(C)cnc4C)c3O2)cc1OC (stereo not drawn)	16	5
N#CC1C(=N)SC(=N)C(C#N)C1c1ccc(Cl)cc1Cl (stereo not drawn)	164*	132*
CC(=O)c1sc2nc(-c3ccccc3)c(-c3ccccc3)n2c1C	-4	-6
COCc1cc(C)nc(OCC(=O)N/N=C\c2ccc(-c3ccc(OC)cc3[N+](=O)[O-])o2)c1C#N	-7	-14
CC1CCN(C(=O)c2cc(NC(=O)NCc3ccccc3)ccc2N2CCC(C)CC2)CC1	4	13
Cc1cccc(NC(=O)CN(C)c2snc(Cl)c2C#N)c1C	4	2
Cc1cc(C)c(NC(=O)CN(C)C(=O)c2ccc3c(c2)C(=O)N(C)C3=O)c(C)c1	4	2
O=C(CSc1ccc2c(c1)OCCCO2)NC1CCS(=O)(=O)C1 (stereo not drawn)	2	1
CCOCCCNC(=O)c1cc(NC(=O)c2ccccc2Cl)ccc1N1CCN(c2ccccc2OC)CC1	20	27
CC(C)c1noc(C(C)Nc2ccc3c(c2)CCO3)n1 (stereo not drawn)	10	9
Cc1sc2nc(CCN)nc(NCc3ccccc3-n3ccnc3)c2c1C	6	10
CCOC(=O)NC(=S)N(C)C1CCC2(CC1)OCC(C)(C)CO2	-8	-10
CC(C)(C)c1ccc(C2=N/C(=C\c3cccs3)C(=O)O2)cc1	-3	-10
CCc1cnc(C)nc1N1CCN(Cc2cccc(OC)c2F)CC1	10	1
CC(=O)Nc1ccc(Cl)c(C(=O)N(C)C(C)c2ccon2)c1 (stereo not drawn)	-8	-8
CC(C)c1ccccc1OC1CC2CCC(C1)N2C(=O)c1ccc(CSc2nc3ccc(Cl)cc3o2)cc1 (stereo not drawn)	10	-2
COc1cc(C(=O)N2CCN(Cc3nc(-c4cccs4)no3)CC2)cc(OC)c1Br	1	-1
C=CCN(CC(O)COCc1ccco1)CC1CC(c2ccccc2)=NO1 (stereo not drawn)	-10	-3
COCCn1cc(NC(=O)Nc2ccccc2C)c2ccccc21	-2	-5
O=S(=O)(NN=Cc1c(F)c(F)c(F)c(F)c1F)c1ccccc1	2	16
COc1ccc(-c2cccc(CN3CCCC3)c2)c(OC)c1	-5	-9
COc1cc2c(C(=O)N3CCN(C)CC3)c(C)n(-c3ccccc3)c2cc1Br	-14	-17
O=C1NCC2(CCCN(c3ncnc4sccc34)CC2)O1 (stereo not drawn)	-3	-8
O=C1C=C(c2ccccc2)OC(c2ccccc2)O1 (stereo not drawn)	-14	-18
O=C(CCS(=O)(=O)c1ccc(Cl)cc1)NCC(=O)Nc1ccccc1Br	-3	5
Cc1ccc(-c2nnc(NC(=O)C(NS(=O)(=O)c3ccc(Cl)cc3)C(C)C)s2)cc1 (stereo not drawn)	13	24
O=C(COc1ncnc2sc3c(c12)CCC3)NC(=O)NCc1ccco1	-2	-3
CCC#CCN1Cc2ccccc2NCCC1=O	2	14
Cn1ccc(NC(=O)N(Cc2ccccc2F)C2CCC2)n1	0	0
CC1CC(C)CN(C(C)C(=O)Nc2ccnn2C(C)C)C1 (stereo not drawn)	4	2
COC(=O)CCCN1CCN(c2nc(C)ns2)CC1	0	0

Reformatted: results already given.
Each structure is followed by: NPYLR7 agonist | NPYLR7 agonist max-min
COCCn1cc(NC(=O)Nc2ccccc2C)c2ccccc21
→ -2 | -5
O=C1C=C(c2ccccc2)OC(c2ccccc2)O1 (stereo not drawn)
→ -14 | -18

The results go on.
SMILES	NPYLR7 agonist	NPYLR7 agonist max-min
CC(=O)NN1C(=O)/C(=C\c2ccc(F)cc2)SC1=S	1	-8
Nc1nc(N)nc(COc2ccc(Cl)cc2Cl)n1	6	6
CC(CN1C(=O)COC1=S)N1C(=O)COC1=S (stereo not drawn)	-1	-5
CCOC(=O)C1=C(NC(=O)c2ccc(C)cc2C)Nc2ccccc2N=C1	0	-2
Cc1cc(C)cc(C(=O)Nc2c(C)nc3ccc(C)cn3c2=O)c1	2	0
CCCNC(=O)C1(C)CCN(Cc2ccc(Cl)c(Cl)c2)C1 (stereo not drawn)	5	5
COc1ccccc1N1CCN(C(=O)c2cc3ccsc3n2Cc2cccc(F)c2)CC1	-3	3
COCCCNCc1cn[nH]c1-c1cccs1	6	5
COCCN(Cc1nccn1Cc1c(F)cccc1Cl)C(=O)CC(C)C	-2	2
CC(=O)OCC(=O)[C@@]12OC(C)(C)O[C@@H]1C[C@H]1[C@@H]3C[C@H](F)C4=CC(=O)C=C[C@]4(C)[C@@]3(F)[C@@H](O)C[C@@]12C	-2&-6	-8&-9
Cc1csc(NC(=O)c2ccc(N3CC(C)OC(C)C3)nc2)n1 (stereo not drawn)	7	5
C=CCS(=O)(=O)NCc1cccnc1N1CCN(c2ccccn2)CC1	8	-1
CN(Cc1ccc(CN2CCCC(c3ccccc3)C2)o1)S(C)(=O)=O (stereo not drawn)	-5	-7
CCOC(=O)C(CC)Sc1ncnc2c1nnn2-c1ccc(F)cc1 (stereo not drawn)	15	18
C=c1ccccc1=C1C=NNC(=NCC2(N(C)C)CCCCC2)N1	3	8
CN(C)c1ccc(/C=C/C=C2/SC(=S)N(Cc3ccccc3)C2=O)cc1	-1	-1
Cc1ccc2[nH]c3c(c2c1)CCCC3NC(=O)CCCCC1CCSS1 (stereo not drawn)	-6	-12
CC1CN2C(=O)CN(C(=O)C3CCN(c4nccc(C(F)(F)F)n4)CC3)CC2c2ccccc21 (stereo not drawn)	1	-5
Nc1c(Cl)cc(NC(=S)NC2CCCCC2)cc1Cl	7	4
Cc1cccc(N2CCn3c2nc2c3c(=O)n(CCC(C)C)c(=O)n2C)c1	9	13

One compound at a time, from the list above. Order of screens: NPYLR7 agonist, NPYLR7 agonist max-min
`Nc1nnc(SCC(=O)Nc2nnc(-c3ccc(Cl)cc3)s2)s1` as listed: -1, 1
`COc1ccc(CCNC(=O)CC(c2ccc(Cl)cc2)c2cn(C)c3ccccc23)cc1OC` (stereo not drawn) as listed: 0, 7
`CCC#CCN1Cc2ccccc2NCCC1=O` as listed: 2, 14
`CC(=O)NN1C(=O)/C(=C\c2ccc(F)cc2)SC1=S` as listed: 1, -8
`Nc1nc(N)nc(COc2ccc(Cl)cc2Cl)n1` as listed: 6, 6

The results go on.
SMILES	NPYLR7 agonist	NPYLR7 agonist max-min
CCCCCCN1CCNC(=O)CC1c1ccncc1 (stereo not drawn)	-5	-7
COc1ccc(C)cc1CN(C)C(=O)Cn1nc(-c2ccccc2)ccc1=O	-6	-8
N#CC(=Cc1ccc(F)cc1)S(=O)(=O)c1cc(Cl)ccc1Cl	-12	-16
N#CCSc1ncnc2sc3c(c12)CCC3	8	14
CC(C)CN1CCC(CNC(=O)c2cnc(-c3cccnc3)nc2)C1 (stereo not drawn)	-3	2
CNc1snc(C)c1C(=O)N1CCN(c2ccc(C(F)(F)F)cn2)CC1	9	4
Cc1cccc2ncnc(N(C)C(C)Cc3ccc(O)cc3)c12 (stereo not drawn)	-5	85
Cc1cc(C)cc(NC(=O)CSc2ccc(-c3ccncc3)nn2)c1	2	-8
COc1cc(NCCCc2csc(N)n2)ncn1	2	-8
CCOC(=O)c1[nH]c2ccccc2c1NC(=O)CC(C)(C)C	1	16
C=C(C)COc1cccc(C(=O)N(C)C(C)c2ccncn2)c1 (stereo not drawn)	1	-3
c1cc2occc2c(-c2ccnc3[nH]ccc23)n1	13	7
CN(C)[C@@H]1C[C@@H](CO)N(Cc2c(Cl)nc3sccn23)C1	-2&-2	6&-4
O=C(NC1CCCc2ccccc21)c1ccc(OC2CCN(Cc3ccccn3)CC2)cc1 (stereo not drawn)	7	7
O=S(=O)(Oc1cccc2cccnc12)c1ccccc1	-5	-10
COc1ccc(Cl)cc1C(=O)NNC(=O)C1CCCC(C(F)(F)F)C1 (stereo not drawn)	3	1
CN1CC2N(C(=O)NCc3ccccc3)C3CCC2(CC3)OC1=O (stereo not drawn)	31	32
COCCNC(=O)C(NC(=O)CC(C)C)C1CCN(C(=O)c2cccc(F)c2)CC1 (stereo not drawn)	1	8
CNC(=O)C1CCCCN1C(=O)c1ccc(-c2cccc(C(F)(F)F)c2)o1 (stereo not drawn)	2	2
Cc1cccnc1C1=NOC(C)C(=O)N1C (stereo not drawn)	6	4

Structures listed so far that have a tert-butyl group, in the order listed:
SMILES	NPYLR7 agonist	NPYLR7 agonist max-min
CC(C)(C)c1ccc(C2=N/C(=C\c3cccs3)C(=O)O2)cc1	-3	-10
CCOC(=O)c1[nH]c2ccccc2c1NC(=O)CC(C)(C)C	1	16

Other records follow:
SMILES	NPYLR7 agonist	NPYLR7 agonist max-min
NC(=O)N1CCC(CC(=O)N2CCC([C@H]3c4ncc(Br)cc4CCc4cc(Cl)cc(Br)c43)CC2)CC1	3	-3
CC(=O)N1CCC(C(=O)NCC2(O)CCC(C(C)(C)C)CC2)CC1 (stereo not drawn)	13	9
OCCC1CN(Cc2cccnc2)CCN1Cc1cccs1 (stereo not drawn)	1	-3
Cc1ccc(F)cc1-c1cnc(N)cn1	8	6
CCOc1ccc(N(CC(=O)N2CCC(C)CC2)S(C)(=O)=O)cc1	-2	-7
O=c1[nH]c(Cn2cc(C(F)(F)F)cc(Cl)c2=O)nc2sc3c(c12)CCCC3	2	0
CC(C(=O)NC(c1ccccc1)c1ccccc1)N1CCC(C(=O)N2CCCCCC2)CC1 (stereo not drawn)	5	4
Cn1c2c(c(=O)n1-c1ccccc1)C1=CCCCCCN1C=N2	13	13
COc1ccc2oc(=O)cc(-c3cc4cc(Br)ccc4o3)c2c1	-1	-1

Screening data (PubChem BioAssay)
